Screening results from PubChem.
HSV replic up – increases HSV replication in cells | HSV replication augmentation in cells, fold increase | maximum fold increase | hit rate 0.005% among 220,000;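 active = peak rise of 1.5-fold or more in the series; inconclusive = self-fluorescent or not available for retest; tested in PC3 cells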;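 note: first round at 10 µM; read as green reporter fluorescence; hits show the peak of a series up to 25 µM; 1 = signal of infected wells without compound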
INS promoter inh – TRM-6 insulin promoter activity inhibition. TRM-6 cells (human fetal islet line), insulin promoter-eGFP reporter, imaging; reporter expression induced with tamoxifen. inhibition, % at 2 µM. hit rate 0.9% among 130,000. AID 1273;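 active = inhibition above the mean plus 3 SD, with well images judged a real hit on visual review, cut at about 60% in these data, passing the limit was not always enough; inconclusive = inhibition over the cutoff but images rejected on review; inactive = inhibition not above the cutoff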
GALR2 agonist – agonists of human galanin receptor 2 (GALR2) | O43603 | GALR2-expressing cells, agonist activation read-out | activation, %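 (tested at 5 µM)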 | hit rate 0.48% among 140,000 | AID 803;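 active = above mean plus 3 SD of all compounds, about 5% in these data, not always enough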;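 note: 0% = vehicle buffer wells and 100% = reference agonist at full effect; tested in CHO reporter cells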
Target sequence (O43603 whole entry, looked up): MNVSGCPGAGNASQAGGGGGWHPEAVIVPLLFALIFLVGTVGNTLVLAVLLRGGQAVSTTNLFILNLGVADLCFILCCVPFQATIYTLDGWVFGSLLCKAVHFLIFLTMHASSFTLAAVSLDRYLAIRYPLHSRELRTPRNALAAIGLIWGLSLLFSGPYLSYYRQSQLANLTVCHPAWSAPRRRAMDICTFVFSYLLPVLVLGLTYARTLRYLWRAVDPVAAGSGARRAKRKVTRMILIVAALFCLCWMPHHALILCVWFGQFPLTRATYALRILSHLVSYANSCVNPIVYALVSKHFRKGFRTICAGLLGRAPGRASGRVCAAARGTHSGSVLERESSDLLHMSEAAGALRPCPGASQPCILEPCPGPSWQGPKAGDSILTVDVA
RGS16-Gao HTS – RGS16-Galphao interaction regulator (human); O15492+P09471; bead-based flow cytometry RGS16-Galphao binding, fluorescence; actives lie on both sides; binding response (% of control), % at 10 µM; hit rate 0.38% among 220,000;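 active = below 25% or above 175%, edge rows of some plates excepted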;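 note: Galphao activated by GDP with aluminum fluoride before binding; 100% = wells without compound and 0% = beads without RGS; some results beyond the cut were filed as inactive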
Target sequence (O15492 whole entry, looked up): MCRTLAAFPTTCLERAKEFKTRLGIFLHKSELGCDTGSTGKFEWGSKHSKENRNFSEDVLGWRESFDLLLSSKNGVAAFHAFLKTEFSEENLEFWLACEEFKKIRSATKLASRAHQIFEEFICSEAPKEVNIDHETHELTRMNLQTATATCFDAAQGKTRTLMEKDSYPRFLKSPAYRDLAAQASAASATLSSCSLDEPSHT
Target sequence (P09471 whole entry, looked up): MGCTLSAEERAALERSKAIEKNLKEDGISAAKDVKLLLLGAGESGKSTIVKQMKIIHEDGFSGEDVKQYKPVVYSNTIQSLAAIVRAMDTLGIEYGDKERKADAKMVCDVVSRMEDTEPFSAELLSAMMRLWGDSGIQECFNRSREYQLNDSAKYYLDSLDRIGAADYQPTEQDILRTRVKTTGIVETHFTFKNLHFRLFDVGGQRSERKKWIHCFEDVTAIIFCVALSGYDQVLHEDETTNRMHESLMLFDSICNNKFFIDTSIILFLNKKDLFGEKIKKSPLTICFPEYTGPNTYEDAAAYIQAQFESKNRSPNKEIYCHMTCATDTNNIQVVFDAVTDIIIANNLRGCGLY
PKD1 inh – PKD1 (human) kinase inhibition; inhibition, %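 (about 10 µM by stock and volumes)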; PKD1 kinase fluorescence polarization assay; Q15139; hit rate 0.056% among 200,000;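 active = inhibition of 50% or more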;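 note: controls were vehicle for no effect and a reference inhibitor for full effect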
INS promoter inh cell count – second read-out of INS promoter inh, no call of its own (marks repeat the call); normalized cell count, %; measured here: cell count, toxicity; reference of the scale not given here;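 cells exposed to compound for 48 h; stained nuclei by imaging scaled within each plate; lower means fewer cells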
HSV replic up primary fold – further read-out of HSV replic up, marked with its call; fold increase; compound at 10 µM; measured here: primary screen fold increase 10 uM; tested in PC3 cells;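 GFP signal in the first replicate; 1 = infected wells without compound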
Starred values were filed as active, the others as inactive; i = inactive; ? = inconclusive; . = not tested or not shown. No enrichment for hits. About 1.1% of those tested had a hit in this group.

Sample of the layout, 2 compounds:
SMILES | HSV replic up | HSV replic up primary fold | INS promoter inh | INS promoter inh cell count | GALR2 agonist | RGS16-Gao HTS | PKD1 inh
CCN(CC)C(=O)c1sc2nc(-c3ccc(OC)cc3)cn2c1C | . | . | . | . | -3.0 | 108.4 | -9.3
O=S(=O)(Nc1ccc(S(=O)(=O)N2CCCCCC2)cc1)c1cccs1 | i | 0.92 | 85.7* | 85.9* | -0.2 | 105.4 | -8.2

The listing (from the top)
SMILES | HSV replic up | HSV replic up primary fold | INS promoter inh | INS promoter inh cell count | GALR2 agonist | RGS16-Gao HTS | PKD1 inh
CCN(CC)C(=O)c1sc2nc(-c3ccc(OC)cc3)cn2c1C | . | . | . | . | -3.0 | 108.4 | -9.3
O=S(=O)(Nc1ccc(S(=O)(=O)N2CCCCCC2)cc1)c1cccs1 | i | 0.92 | 85.7* | 85.9* | -0.2 | 105.4 | -8.2
COCCCNC(=O)CSC1=Nc2ccccc2C2=NC(CC(=O)NCc3ccccc3)C(=O)N12 (stereo unspecified) | i | 0.97 | -64.3 | 158.2 | -0.3 | 95.8 | -0.1
COc1ccc(CCNC(=O)CC2COc3ccccc3O2)cc1OC (stereo unspecified) | i | 0.87 | 9.5 | 149.9 | -1.4 | 102.2 | -10.9
COc1ccc(S(=O)(=O)N(CC(=O)NCc2ccco2)c2ccccc2)cc1 | i | 0.83 | -26.7 | 88.0 | 0.8 | 115.0 | -4.5
COc1ccc(C(=O)Nn2c(SCC(=O)N3CCC(C)CC3)nc3ccccc3c2=O)cc1 | i | 1.02 | 11.4 | 80.6 | -0.6 | 101.8 | -9.3
COc1ccc(S(=O)(=O)NCc2ccccn2)c(Cl)c1Cl | i | 0.91 | -26.0 | 176.3 | -1.6 | 106.2 | -4.1
O=C(CNC(=O)c1ccccc1)NC1(C(=O)NC2CCCCC2)CCCCC1 | i | 1.06 | 0.0 | 91.2 | . | 99.3 | 7.0
Cc1ccc(S(=O)(=O)Nc2cc(Cl)c(O)cc2C)cc1 | i | 0.79 | -9.3 | 145.8 | -3.0 | 100.9 | 4.1
CS(=O)(=O)N(CC(=O)NCc1ccncc1)C1CCCCC1 | i | 0.93 | . | . | . | 107.5 | -6.8
CCC(=O)Oc1ccc2c(c1)OC1(OC(C)=O)OC(C)CC1=C2C (stereo unspecified) | i | 1.14 | . | . | . | 101.6 | .
NC(=S)Cc1ccccc1Cl | i | 1.04 | . | . | . | 95.5 | .
Cc1cc(O)c(NC(=O)c2cccc([N+](=O)[O-])c2)cc1C | i | 0.94 | . | . | . | 105.4 | .
CC(C)N1C(=S)SC(C)(C)C1n1oc(=O)n(-c2cccc(Cl)c2)c1=O (stereo unspecified) | i | 0.98 | . | . | . | 103.2 | -2.1
CN(CCO)c1cc(NCCCN2CCC(Cc3ccccc3)CC2)c2nonc2c1[N+](=O)[O-] | i | 0.64 | -66.7 | 142.2 | . | 104.9 | -5.2
O=c1oc(-c2cccs2)nc2sc3c(c12)CCC3 | i | 0.81 | -14.8 | 112.1 | -1.9 | 95.5 | -10.7
Cc1ccc(S(=O)(=O)N2C(=O)CCC2C(=O)Nn2cnnc2)cc1 (stereo unspecified) | i | 1.22 | . | . | -1.6 | 94.3 | 5.2
CC(C)NC(=O)NC(=O)CSc1nnc(-c2ccccc2F)n1N | i | 0.94 | -18.2 | 89.1 | . | 92.7 | -1.8
COc1ccc(N2C(=O)C3C(c4ccc(OC)cc4O)NC(Cc4ccccc4)(C(=O)O)C3C2=O)cc1 (stereo unspecified) | i | 1.07 | 35.0 | 50.9 | . | 92.7 | -1.6
CC[C@H]1OC(=O)[C@H](C)[C@@H](O[C@H]2C[C@@](C)(OC)[C@@H](O)[C@H](C)O2)[C@H](C)[C@@H](O[C@@H]2O[C@H](C)C[C@H](N(C)C)[C@H]2O)[C@](C)(OC)C[C@@H](C)C(=O)[C@H](C)[C@@H](O)[C@]1(C)O | i | 0.92 | . | . | . | 96.9 | .
CC(Oc1ccccc1)C(=O)NC1CC(C)(C)NC(C)(C)C1 (stereo unspecified) | i | 1.07 | 8.3 | 104.1 | -2.0 | 105.5 | -1.8
Cc1nnsc1S(=O)(=O)Cc1ccccc1Cl | i | 1.04 | . | . | -1.0 | 98.8 | -3.0
O=C(OCC(=O)N1CCCCCC1)c1ccc(Cl)c(S(=O)(=O)N2CCCC2)c1 | i | 0.96 | . | . | . | 102.8 | 0.6
Cc1cccc(C(CC(=O)NCc2ccco2)c2ccccc2)c1O (stereo unspecified) | i | 1.09 | -30.2 | 132.2 | . | 97.0 | -5.5
O=c1[nH]c(CSc2nnnn2-c2ccccc2)nc2ccccc12 | i | 0.89 | 4.8 | 63.5 | . | 99.2 | -13.7
CC1(C)CC(=O)C=C(NCc2cccnc2)C1 | i | 0.95 | 16.1 | 124.2 | -1.3 | 70.8 | -6.5
O=C(O)c1ccc2c(c1)C(c1ccccc1)OC2=O (stereo unspecified) | i | 0.8 | . | . | -2.9 | 78.4 | -1.1
COCCn1c(SCC(=O)NC(=O)NC(C)(C)C)nc2ccccc21 | i | 0.93 | -17.1 | 118.6 | -1.4 | 104.8 | -8.1
CC(=O)Oc1ccc(/C=N/NS(=O)(=O)c2ccccc2)cc1 | i | 0.99 | 50.0 | 72.5 | . | 98.2 | 4.4
CC1CN(CC(O)COC(c2ccccc2)c2ccccc2)CC(C)O1 (stereo unspecified) | i | 1 | -26.5 | 84.8 | 1.4 | 100.2 | 10.0
CN1CC=C2C(C#N)=C(N)C(C#N)(C#N)C(CCc3ccccc3)C2C1 (stereo unspecified) | i | 1.16 | -212.5 | 83.5 | 3.0 | 103.9 | 18.6
Cc1ccc(C)c2sc(NC(=O)c3ccc(N4CCCCC4)c([N+](=O)[O-])c3)nc12 | i | 1.12 | . | . | -1.5 | 95.3 | 3.6
COc1cc([N+](=O)[O-])cc(/C=N/NC(=O)Cn2nc(C)cc2C)c1O | i | 0.97 | . | . | . | 94.0 | .
CCn1c(C(C#N)/C(=N\S(=O)(=O)c2cccs2)c2ccccc2)nc2ccccc21 (stereo unspecified) | i | 1.12 | 7.1 | 37.5 | -0.6 | 104.3 | -4.6
Cc1cccc(Nc2nc(-c3ccccn3)cs2)n1 | i | 0.72 | -23.1 | 70.5 | -1.5 | 96.6 | 7.2
CC(=O)Nc1cccc(C2=CC(c3ccco3)n3ncnc3N2)c1 (stereo unspecified) | ? | . | . | . | . | 98.0 | 5.7
OCCC1CN(Cc2cc3c(cc2Cl)OCO3)CCN1C1CCCCC1 (stereo unspecified) | i | 1.17 | . | . | . | 101.2 | 2.0
O=C(CC1S/C(=N/N=C/c2cccs2)NC1=O)Nc1ccc(Cl)cc1 (stereo unspecified) | i | 1.09 | . | . | -0.7 | 206.1 | 4.4
N/C(=N\OC(=O)COc1ccc2ccccc2c1Br)c1ccccn1 | i | 0.98 | . | . | . | 99.7 | -8.9
C=CCn1c(SCC(=O)NCC)nnc1-c1cc2c(s1)CCC(CC)C2 (stereo unspecified) | i | 1.09 | 28.6 | 108.9 | -1.8 | 107.4 | 3.7
COC(=O)C1=C(N)N(c2ccc(F)cc2)C2=C(C(=O)CCC2)C1c1ccc2c(c1)OCO2 (stereo unspecified) | . | . | . | . | -0.7 | 94.0 | -10.1
NNC(=O)COc1cccc(C(F)(F)F)c1 | i | 0.93 | 50.0 | 90.7 | . | 105.3 | -0.2
Cc1cc(/C=C(\C#N)C(=O)OCC(=O)NC(=O)NC(C)(C)C)c(C)n1CCC(C)C | i | 1.04 | 37.1 | 130.8 | -2.8 | 103.1 | -2.8
FC(F)(F)c1nc(=S)c2ccccc2[nH]1 | . | . | 7.1 | 85.1 | . | 80.5 | -3.1
O=C(Cn1nnc(-c2ccc(N3CCOCC3)cc2)n1)N1CCOCC1 | i | 1.15 | . | . | . | 95.2 | .
COc1cc2ncc(S(=O)(=O)c3ccccc3)c(N3CCC4(CC3)OCCO4)c2cc1OC | i | 0.9 | 3.7 | 111.5 | . | 98.3 | 2.6
COc1ccc(-c2nn(-c3ccccc3)cc2/C=N/Nc2ccccn2)cc1 | i | 0.89 | 30.0 | 153.2 | . | 108.0 | -7.1
COc1cc(C)c(NC(=S)Nc2cccc(Cl)c2C)cc1OC | i | 1.07 | . | . | -0.8 | 97.3 | -5.3
CCOC(=O)Cc1ncccc1C(=O)Nc1ccc(OC(F)(F)F)cc1 | . | . | . | . | . | 53.6 | -0.7
Cc1cccc(Oc2nc(-c3ccccc3)cc(C)c2S(C)(=O)=O)c1C | i | 0.87 | -56.5 | 115.9 | -1.1 | 99.5 | -6.3
COc1cccc(NS(=O)(=O)c2ccc3c(c2)n(C)c(=O)c(=O)n3C)c1 | i | 0.85 | 24.7 | 120.6 | -2.0 | 104.5 | -15.2
O=c1c2ccccc2cnn1Cc1cccc(Br)c1 | i | 1.09 | 4.8 | 104.2 | . | 120.2 | -6.9
C=CCn1c(N)c(C(=O)OCC(C)C)c2nc3ccccc3nc21 | . | . | . | . | -3.8 | 93.6 | -9.5
COc1ccc(CCNC(=S)N2CCC(C(=O)c3ccc(F)cc3)CC2)cc1OC | i | 0.92 | -83.3 | 38.8 | . | 145.5 | -5.6
Cc1ccc(C)c(N2CCN(C(=O)C3CCCCN3S(=O)(=O)c3ccc(F)cc3)CC2)c1 (stereo unspecified) | i | 0.76 | -67.9 | 133.9 | 0.0 | 108.7 | -4.2
O=C(CC1(O)C(=O)Nc2ccccc21)c1ccc(-n2cccc2)cc1 (stereo unspecified) | i | 0.96 | -31.6 | 93.2 | -0.9 | 101.1 | 0.8
Cc1c(Br)c([N+](=O)[O-])nn1CC(=O)Nc1ccc(CC#N)cc1 | i | 1.02 | -54.5 | 77.1 | . | 118.1 | -4.0
COc1ccc(NC(=O)CCN2C(=O)c3ccncc3C2=O)cc1OC | i | 0.84 | . | . | . | 107.4 | .
COc1ccc(/C=C(/CC(=O)Nc2ccc(C)cc2)c2nc3ccccc3s2)cc1 | i | 0.9 | -13.3 | 38.0 | -0.8 | 102.6 | -12.7
CCOC(=O)C1CCN(C(=O)CSc2ccc(Br)cc2)CC1 | i | 0.92 | . | . | . | 106.2 | -1.3

(list continues)
SMILES | HSV replic up | HSV replic up primary fold | INS promoter inh | INS promoter inh cell count | GALR2 agonist | RGS16-Gao HTS | PKD1 inh
Fc1cccc(Cl)c1Cn1nnc2c(NCc3ccncc3)ncnc21 | i | 1.01 | 14.3 | 99.8 | . | 204.9 | -14.6
COC(=O)c1ccc(SC2CCCCC2)c([N+](=O)[O-])c1 | i | 0.96 | -15.6 | 134.2 | 0.1 | 105.4 | -2.1
CC(O)c1cccc(NC(=O)C2CCCCC2)c1 (stereo unspecified) | i | 0.93 | . | . | . | 91.9 | -1.7
Cc1ccc(NC(=S)N(CCCN2CCCC2)Cc2cccn2Cc2ccc(Cl)cc2)cc1C | i | 0.67 | -64.3 | 98.5 | . | 99.1 | 0.2
Nc1ccc(CN2CCCCCC2)cc1 | i | 1.05 | 27.8 | 103.8 | -3.3 | 120.6 | 4.9
COC(=O)c1ccc(NC(=O)CN2C(=O)CSC2=O)cc1 | i | 0.85 | -57.9 | 124.8 | 0.7 | 101.2 | 8.7
Cc1[nH]nc(SCC(=O)N2CCC(C)CC2)c1[N+](=O)[O-] | i | 0.91 | -46.1 | 127.8 | -1.5 | 99.5 | -1.8
O=C(O)C1(P(=O)(c2ccc(Cl)cc2)c2ccc(Cl)cc2)CCCC1 | i | 1.09 | 31.6 | 133.7 | . | 103.1 | -7.4
C=CCSc1nc2c(c(=O)[nH]c(=O)n2C)n1Cc1ccc(C)cc1 | . | . | -50.0 | 88.1 | 0.8 | 101.2 | -1.9
CCOC(=O)c1c(NC(=O)CSc2nnc(Cc3ccccc3)o2)sc(C(C)=O)c1C | i | 1.01 | 25.0 | 80.0 | -0.8 | 97.5 | 4.5
Cc1cc(C)c(NC(=O)COC(=O)CCc2ccc(S(=O)(=O)N3CCCCC3)cc2)c(C)c1 | i | 1.02 | . | . | -0.1 | 107.2 | -0.5

Four entries from above in another layout:
structure	HSV replic up	HSV replic up primary fold	INS promoter inh	INS promoter inh cell count	GALR2 agonist	RGS16-Gao HTS	PKD1 inh
O=C(O)C1(P(=O)(c2ccc(Cl)cc2)c2ccc(Cl)cc2)CCCC1	i	1.09	31.6	133.7	.	103.1	-7.4
C=CCSc1nc2c(c(=O)[nH]c(=O)n2C)n1Cc1ccc(C)cc1	.	.	-50.0	88.1	0.8	101.2	-1.9
CCOC(=O)c1c(NC(=O)CSc2nnc(Cc3ccccc3)o2)sc(C(C)=O)c1C	i	1.01	25.0	80.0	-0.8	97.5	4.5
Cc1cc(C)c(NC(=O)COC(=O)CCc2ccc(S(=O)(=O)N3CCCCC3)cc2)c(C)c1	i	1.02	.	.	-0.1	107.2	-0.5
